Screening data: PubChem BioAssay, National Center for Advancing Translational Sciences (NCATS)
VDR inhibitor = vitamin D3 receptor (human) inhibition | P11473 | VDR-SRC2-3 peptide fluorescence polarization, 2 h | Potency, µM, without a hit: max response, negative = inhibition, hits mostly inhibitors | 400,000 tested, 0.93% active | AID 504847; active = well fitted inhibition curve with a large enough effect; inconclusive = small, poorly fitted or top-dose-only effect, or another doubt; inactive = no such curve, though single readings can be large or run the other way; also: series mostly up to about 120 µM
Target sequence (P11473 whole entry, looked up): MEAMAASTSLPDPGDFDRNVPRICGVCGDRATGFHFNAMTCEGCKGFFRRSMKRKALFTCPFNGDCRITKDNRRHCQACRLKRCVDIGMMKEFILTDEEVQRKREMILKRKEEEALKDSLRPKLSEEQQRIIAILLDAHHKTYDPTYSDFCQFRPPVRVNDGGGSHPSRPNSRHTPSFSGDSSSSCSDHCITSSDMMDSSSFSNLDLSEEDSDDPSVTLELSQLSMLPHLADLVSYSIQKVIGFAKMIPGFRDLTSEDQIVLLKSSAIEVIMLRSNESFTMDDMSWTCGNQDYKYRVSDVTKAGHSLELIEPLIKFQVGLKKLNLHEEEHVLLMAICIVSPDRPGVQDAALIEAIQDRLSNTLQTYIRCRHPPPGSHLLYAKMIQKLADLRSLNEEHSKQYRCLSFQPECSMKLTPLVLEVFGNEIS
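Compounds are added to VDR with labelled SRC2-3 coactivator peptide and held 2 h at room temperature. Inhibition of the VDR–peptide interaction is then read as a change in fluorescence polarization.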
* hit, by the source's call; ? = inconclusive; & = joins results of further samples. % is scaled to controls: 0 for no effect and ±100 for the full control effect; potency is read from the fitted curve at half-maximal effect.

SMILES	VDR inhibitor
C[n+]1ccccc1/C=C/c1ccc([N+](=O)[O-])cc1	-8%
C/C(CCc1ccco1)=N\NC(=O)CNc1c(Br)cc(Br)cc1Br	-16%
Cc1[nH]c2ccccc2c1SCC(=O)N1CCC(C)CC1	-10%
CCc1cccc(NC(=O)CSc2nncn3c2cc2sccc23)c1	-8%
COc1ccc(/C=N/O)cc1COc1ccc(NC(C)=O)cc1	-1%
Cc1ccccc1OCc1nnc2n1CC(C)S2 (configuration not stated)	-10%
CCOC(=O)COc1c(OC)cc(Cl)cc1C1Nc2ccccc2C(=O)N1c1ccc(F)cc1 (configuration not stated)	6%
O=C(Cc1ccc(NC(=O)N2CCSc3ncccc32)cc1)NCc1cccc(Cl)c1	2%
CCCCn1c(N)c(N(CCOC)C(=O)c2cc3ccccc3cc2OC)c(=O)[nH]c1=O	-11%
CCn1c(Cc2ccccc2)nnc1SCC(=O)Nc1ccccc1	-12%
COc1ccc(CCNC(=O)CCn2c(=O)c3ccccc3n(CC(=O)Nc3cccc(C)c3)c2=O)cc1OC	-6%
O=C(CCCN1C(=O)NC2(CCCC2)C1=O)N1CCN(S(=O)(=O)c2ccccc2)CC1	-9%
CCOC(=O)N1CCc2c(sc3[nH]c(=S)[nH]c(=S)c23)C1	-6%
C=CCN1C(=O)/C(=c2\sc3nc(=O)c(Cc4ccc(OC)c(OC)c4)nn3c2=O)c2ccccc21	40µM*
COc1ccccc1CNC(=O)C1CCN(S(=O)(=O)c2ccc3c(c2)CCCN3C(C)=O)CC1	11%
O=C(c1cc(COc2c(F)cccc2F)on1)N1CCC(c2ccncc2)CC1	4%
CCc1ccc(CNCc2ccc(OCC(O)CN(C)Cc3ccccc3)cc2)nc1 (configuration not stated)	-23%
O=C1c2ccccc2C(=O)N1CCCc1nc2ccccc2c(=O)n1CCCn1ccnc1	10%
Cc1ccc(NC(=O)c2cccc(NC3=NC4CS(=O)(=O)CC4S3)c2)cc1C (configuration not stated)	-16%
Cc1ccn2c(=O)nc(SCC(=O)NCc3ccccc3)nc2c1	6%
Cc1ccc(NC(=O)c2cnc3sc(N4CCOCC4)nn3c2=O)cc1N(C)C	3%
CCOC(=O)N1CCN(C(=O)CN(c2ccc3c(c2)OCO3)S(C)(=O)=O)CC1	14%
Cc1cc(C)c(NC(=O)CSc2nc(=O)n(Cc3ccco3)c3c2CCC3)c(C)c1	2%
O=C(Nc1ccccc1)Nc1nc(-c2ccc(F)cc2)cs1	-26%
O=C1CCN(CCc2ccccc2)CCN1CCSc1ccc(Br)cc1	4%&0%

Quoted at random: 6 records from the list.
SMILES	VDR inhibitor
CCc1cccc(NC(=O)CSc2nncn3c2cc2sccc23)c1	-8%
CCOC(=O)N1CCN(C(=O)CN(c2ccc3c(c2)OCO3)S(C)(=O)=O)CC1	14%
COc1ccc(CCNC(=O)CCn2c(=O)c3ccccc3n(CC(=O)Nc3cccc(C)c3)c2=O)cc1OC	-6%
O=C(Nc1ccccc1)Nc1nc(-c2ccc(F)cc2)cs1	-26%
C=CCN1C(=O)/C(=c2\sc3nc(=O)c(Cc4ccc(OC)c(OC)c4)nn3c2=O)c2ccccc21	40µM*
CCOC(=O)N1CCc2c(sc3[nH]c(=S)[nH]c(=S)c23)C1	-6%

(next part)
SMILES	VDR inhibitor
Cc1ccc(NC(=S)N(CCN(C)C)Cc2cccs2)cc1C	-24%
COc1ccc(NC(=O)CS(=O)(=O)c2cn(CC(=O)N3CCCC3)c3ccccc23)c(OC)c1	-3%
Clc1ccc2nc(-c3ccccc3)cn2c1	16%
CC1CCN(c2c(NCC3CCC(C(=O)NCCC4=CCCCC4)CC3)c(=O)c2=O)CC1 (configuration not stated)	9%
Cc1cccc(NS(=O)(=O)c2ccc3c(c2)CCC(=O)N3)c1	-20%
CC(C)N(C(=O)Cn1cc(SCC(=O)Nc2ccccc2C(F)(F)F)c2ccccc21)C(C)C	4%
CCOc1ccc2nc(COC(=O)c3cccs3)c(C(=O)c3ccccc3)[n+]([O-])c2c1	-5%
O=C(NC1CCN(C(=O)Nc2cccc(Cl)c2)CC1)c1ccco1	-6%
O=C(N/N=C/c1cc(Br)ccc1O)c1ccncc1	21%
O=C(CN1C(=O)COc2ccccc21)N1CCCC1	-9%
O=C(NNC(=S)NC(=O)c1ccccc1[N+](=O)[O-])c1ccccc1[N+](=O)[O-]	-7%
CC1(C)SC(=S)N(NC(=O)Nc2cccc3ccccc23)C1N(O)C(=O)Nc1ccccc1 (configuration not stated)	7%
O=C(Nc1cccc(S(=O)(=O)C(F)F)c1)c1ccc(S(=O)(=O)N2CCCCC2)cc1	3%
CCCOc1ccc(C2C(=O)N(C3CCCCC3)CC(=O)N2C2CC2)cc1OC (configuration not stated)	0%
COc1cc(S(=O)(=O)N2CCN(Cc3ccc4c(c3)OCO4)CC2)c(C)cc1C	-3%
CC/S(C)=N/S(=O)(=O)c1ccc(C)cc1 (configuration not stated)	-16%
CN1CCN(c2ncnc3ccc(-c4cccc(NS(C)(=O)=O)c4)cc23)CC1	-5%
O=C(/C=C/c1cccc(Br)c1)N1CCN(c2cccc(C(F)(F)F)c2)CC1	-19%
Cn1ccnc1-c1ccc(-c2nccn2C)cc1	6%
Cc1ccc(CNC(=O)C2CCC(CNc3c(N4CCC(C)CC4)c(=O)c3=O)CC2)cc1 (configuration not stated)	-1%
COc1ccc(Nc2oc(/C=C/c3cc(OC)c(OC)c(OC)c3)nc2C#N)cc1	12%
CCC(CC)NC(=O)Nc1ccc(F)c(Cl)c1	-6%
COc1ccccc1NC(=O)CSc1nnc(C2CCCCC2)n1N	?
Cc1ccc(NC(=O)c2sc3ncnc(N(C)C4CCCCC4)c3c2C)c(C)c1	8%
CCCC(=O)Nc1nc2c(C)c(Cl)ccc2s1	-20%

Not a retest: an excerpt of the list.
SMILES	VDR inhibitor
COc1ccc(Nc2oc(/C=C/c3cc(OC)c(OC)c(OC)c3)nc2C#N)cc1	12%
CCC(CC)NC(=O)Nc1ccc(F)c(Cl)c1	-6%
COc1ccccc1NC(=O)CSc1nnc(C2CCCCC2)n1N	?
Cc1ccc(NC(=O)c2sc3ncnc(N(C)C4CCCCC4)c3c2C)c(C)c1	8%
CCCC(=O)Nc1nc2c(C)c(Cl)ccc2s1	-20%

Next results
SMILES	VDR inhibitor
CCN(CCCNC(=O)CCn1c(=S)[nH]c2cc3c(cc2c1=O)OCO3)c1cccc(C)c1	-6%
CCN(CC)C(=O)c1sc2c(c1C)c(=O)n(-c1ccc(OC)cc1OC)c(=O)n2CC(=O)c1ccc(Cl)cc1	9%
CCCOC(=O)c1cccc(NC(=O)COc2ccc([N+](=O)[O-])cc2)c1	-7%
Cc1ccc(C(=O)N/N=C2\CC3CC=CC23)c(C)c1 (configuration not stated)	1%
CCS(=O)(=O)N1CCN=C1SC(C)c1ccccc1 (configuration not stated)	-11%
CC[C@H](C)[C@H](NC(=O)[C@H](CO)NC(=O)[C@H](CC(C)C)NC(=O)[C@H](CO)NC(=O)[C@@H]1CCCN1C(=O)[C@H](CC(N)=O)NC(=O)[C@@H](N)CC(=O)O)C(=O)N[C@@H](CC(=O)O)C(=O)N[C@@H](CC(C)C)C(=O)N[C@H](C(=O)N[C@@H](Cc1ccccc1)C(=O)N[C@@H](Cc1cnc[nH]1)C(=O)N[C@@H](CC(C)C)C(=O)N[C@@H](CC(C)C)C(=O)N[C@@H](CCCNC(=N)N)C(=O)N[C@H](C(=O)N[C@@H](CC(C)C)C(=O)N[C@@H](CC(C)C)C(=O)N[C@@H](CCC(=O)O)C(=O)N[C@@H](CC(C)C)C(=O)N[C@@H](C)C(=O)N[C@@H](CCCNC(=N)N)C(=O)N[C@H](C(=O)N[C@@H](CCC(N)=O)C(=O)N[C@@H](CO)C(=O)N[C@@H](CCC(N)=O)C(=O)N[C@@H](CCCNC(=N)N)C(=O)N[C@@H](CCC(=O)O)C(=O)N[C@@H](CCCNC(=N)N)C(=O)N[C@@H](C)C(=O)N[C@@H](CCC(=O)O)C(=O)N[C@@H](CCC(N)=O)C(=O)N[C@@H](CC(N)=O)C(=O)N[C@@H](CCCNC(=N)N)C(=O)N[C@H](C(=O)N[C@H](C(=O)N[C@@H](Cc1ccccc1)C(=O)N[C@@H](CC(=O)O)C(=O)N[C@@H](CO)C(=O)N[C@H](C(N)=O)C(C)C)[C@@H](C)CC)[C@@H](C)CC)[C@@H](C)O)[C@@H](C)O)[C@@H](C)O	-2%
Cc1ccc2nc(C3CCN(C(=O)c4ccco4)CC3)[nH]c2c1	-1%
O=C(CSc1nc2ccccc2c(=O)n1-c1ccc(F)cc1)Nc1ccc2c(c1)CCC2	-3%
Cc1cc(N)c2ccccc2n1	-3%
O=C(Nc1cccc(Cl)c1)C1C2C=CC3(O2)C1C(=O)N(CCN1CCCCC1)C3C(=O)NC1CCCCC1 (configuration not stated)	5%
COCCN1C(=O)N(c2cccc(OC)c2)C(=O)C1CC(=O)Nc1cccc(F)c1 (configuration not stated)	-10%
CCc1nn(CC(=O)NCCN(CC(C)C)CC(C)C)c(=O)c2cc3sc(C)cc3n12	-1%
Cc1ccc(NC(=O)CC2Oc3ccc(C)cc3NC2=O)c(C)c1 (configuration not stated)	-12%&5%
CCCn1c(=S)[nH]c2sc3c(c2c1=O)CCCC3	-4%
CC1Sc2ccc(C(=O)O)cc2NC1=O (configuration not stated)	-2%
O=C(Oc1ccc(/C=N/Nc2ccccc2)cc1)c1ccccc1	18%
CC(=O)c1ccc(N2CCN(C(=O)/C=C/c3ccc(S(=O)(=O)NCc4ccco4)cc3)CC2)cc1	12%
CC(=O)Nn1cc2c(c1-c1ccccc1)c(=O)n(C)c(=O)n2C	-1%
Cc1ccc(/C=C/C(=O)OCC(=O)NC(C)C)o1	20%
O=C(O)CC(NC(=O)c1cccc(F)c1)c1ccc(OC2CCCC2)cc1 (configuration not stated)	-23%
Cc1ccc(S(=O)(=O)CNC(=S)c2cccc(Cl)c2)cc1	?
Cc1nn(Cc2ccc(Cl)c(Cl)c2)c(C)c1NC(=O)c1cc(-c2ccc3c(c2)OCO3)on1	0%
Cc1cccc(N2CCN(Cc3c(C)n(C)n(-c4ccccc4)c3=O)CC2)c1C	-12%
COC(=O)c1c(C)[nH]c(C(=O)C(C)OC(=O)C2CC(=O)N(c3ccc(C)cc3)C2)c1C (configuration not stated)	-6%
O=C(CSCc1ccc(F)cc1)N1CCN(c2ccccc2F)CC1	-2%
(list continues)
SMILES	VDR inhibitor
Cc1nn(C)c(C)c1/C=C(\C#N)C(N)=O	-25%
N=c1c2cn[nH]c2nc(SCC(=O)c2ccc(Br)cc2)n1-c1ccc(Br)cc1	-3%
COc1ccc(C(=O)N2c3ccc(C)cc3C(C)(c3ccccc3)CC2(C)C)cc1 (configuration not stated)	-6%
COC(=O)c1ccc(C(=O)OC)c(NC(=O)N2CC3CCCN3c3ccccc32)c1 (configuration not stated)	10%
CSC(=Nc1ccccc1)C1=C(O)COC1=O	-1%
COC(=O)c1ccccc1NC(=O)C1CCN(c2ncnc3c2nc2n3CCCCC2)CC1	15%
C=CCn1c(COc2ccccc2)nc2ccccc21	2%
Clc1ccccc1-c1nnc2sc(-c3ccccn3)nn12	12%
COc1cc2c(cc1OC)-c1cc(OCc3ccccc3Cl)nc(=O)n1CC2	-1%
O=C(COC(=O)c1ccc(O)cc1)NCCc1c[nH]c2ccccc12	4%
COc1ccc(OCc2nnc(SCC(=O)c3ccccc3)o2)cc1	16%
CC(C)(C)NC(=O)c1cccc(NC(=O)Cc2ccc(Br)cc2)c1	-10%
O=S(=O)(CCN1CCSCC1)c1ccc(Cl)cc1	10%
O=C(O)c1cc2c(cc1Cl)N1CCCCCC1=NS2(=O)=O	-27%
O=C(NC1CCCC1)c1n[nH]c2ccccc12	-14%
CCCNC(=O)C1CN(C(=O)c2nn(Cc3ccccc3)c(=O)c3ccccc23)c2ccccc2O1 (configuration not stated)	2%
Cc1cccc(C)c1NC(=O)C(NC=O)c1ccccc1 (configuration not stated)	-6%
COc1ccc([N+](=O)[O-])cc1NC(=S)NC(NC(C)=O)C(Cl)(Cl)Cl (configuration not stated)	-2%
COc1ccc(NC(=O)c2ccc3ccccc3n2)cc1S(=O)(=O)N1CCCCC1	-15%
COc1ccc2[nH]c(=O)c(CN(C(=O)NC3CCCCC3)C3CCCC3)cc2c1	2%
COCCCn1c(=N)c(C(=O)NCC2CCCO2)cc2c(=O)n3cc(C)ccc3nc21 (configuration not stated)	-12%
c1ccc(CCn2c(SCc3ccccc3)nnc2-c2ccncc2)cc1	-8%
COc1cccc(NC(=S)N2CCN(C(c3ccccc3)c3ccccc3)CC2)c1	8%
CCN(CC)S(=O)(=O)c1ccc(NC(=O)c2cc(=O)[nH]c3ccccc23)cc1	16%
CCN1CCN(c2ccc(NC(=O)c3cccc4ncccc34)cc2)CC1	-1%
Additional compounds follow:
SMILES	VDR inhibitor
O=C(NCCOc1ccc(F)cc1)C1CCC(=O)N(CCN2CCOCC2)C1 (configuration not stated)	0%
CCOC(=O)N1CCN(c2cc(=O)n(Cc3ccc(F)cc3)c(=O)[nH]2)CC1	-6%
Cn1c(NC(=O)C(C)(C)Oc2ccc(Cl)cc2)cc(=O)n(C)c1=O	10%
Cc1cc(=O)oc2cc(OCC(=O)N3CCOCC3)ccc12	-15%
CSc1ccccc1NC(=O)Nc1cccc(Cl)c1Cl	-16%
Cc1cc(Cl)ccc1NS(=O)(=O)c1ccc2c(c1)CCN2S(C)(=O)=O	14%
CCOCC(=O)Nc1nc2ccc(OCC)cc2s1	6%
Cc1ccc2[nH]c(O)c(N=NC(N)=S)c2c1	-26%
Cc1ccc(/C=[N+](\[O-])c2ccc(N(C)C)cc2)c2nsnc12	?
O=C(CNC(=O)c1cc(=O)[nH]c2ccccc12)Nc1ccc(F)c(F)c1	-1%
N#CC1(Cc2ccccc2)c2ccccc2C=CN1C(=O)c1ccccc1 (configuration not stated)	9%
O=C1CC(N2CCCCC2)C(=O)N1c1ccccc1 (configuration not stated)	-2%
COc1cccc2c1cc1c(=O)n(CC(=O)N3CCC(C)CC3)nc(C)n12	-17%&-1%

This is a subset; count on the stated rates, not on these rows.
